PABP polyA inh – PABP-poly(A) binding inhibition | P11940 | inhibition, % at 35 µM | PABP-poly(A) RNA binding, fluorescence polarization | hit rate 1% among 290,000;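 active = 50% or more with normal probe brightness, or confirmed in later tests; about a fifth of its hits are not listed in these tables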;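 note: calls also rest on retests at 20 µM and on dose response follow-up; controls were probe without protein and protein plus probe with vehicle; some compounds called inactive have numbers as strong as hits; many hits fall short of the cut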
Target sequence (P11940 whole entry, looked up): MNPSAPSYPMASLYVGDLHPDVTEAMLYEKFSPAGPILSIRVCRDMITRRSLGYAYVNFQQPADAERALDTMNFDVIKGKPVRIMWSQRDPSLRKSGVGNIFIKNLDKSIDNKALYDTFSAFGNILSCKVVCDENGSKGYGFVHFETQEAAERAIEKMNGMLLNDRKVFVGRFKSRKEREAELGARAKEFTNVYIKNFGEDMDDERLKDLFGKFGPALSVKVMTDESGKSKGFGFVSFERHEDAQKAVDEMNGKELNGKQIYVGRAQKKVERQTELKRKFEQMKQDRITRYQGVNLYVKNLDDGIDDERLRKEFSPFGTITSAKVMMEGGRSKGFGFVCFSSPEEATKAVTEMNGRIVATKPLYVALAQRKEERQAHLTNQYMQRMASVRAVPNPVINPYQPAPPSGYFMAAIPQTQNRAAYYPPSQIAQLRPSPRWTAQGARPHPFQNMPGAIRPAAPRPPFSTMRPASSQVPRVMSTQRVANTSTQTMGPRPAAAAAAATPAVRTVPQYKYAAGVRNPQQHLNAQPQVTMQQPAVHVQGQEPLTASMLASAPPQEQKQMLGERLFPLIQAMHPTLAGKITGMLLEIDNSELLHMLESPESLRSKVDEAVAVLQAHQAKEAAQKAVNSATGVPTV
eIF4H FP inh – inhibitors of RNA binding by human eIF4H; Q15056; eIF4H fluorescence polarization binding assay; inhibition, % at 35 µM; hit rate 0.94% among 290,000; AID 2012;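 active = 50% or more with normal probe brightness, or confirmed in later tests; about a fifth of its hits are not listed in these tables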;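 note: calls also rest on retests at 20 µM and on dose response follow-up; 0% = protein and probe with vehicle and 100% = probe without protein; strong numbers were not always called active; many hits fall short of the cut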
CSC inhib – cancer stem cell inhibition; AID 2717; hit rate 1.1% among 300,000; inhibition, % at 7.5 µM; cancer stem cell-like cells viability, luminescence;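 active = mean at 75% or more and at least half the replicates too; tested in HMLE shEcad cells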;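 note: 0% = median of negative and 100% = median of positive control wells; the first replicate is given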
UUG fidelity – modulators of start codon recognition fidelity in yeast; S. cerevisiae UUG-firefly luciferase reporter, luminescence/redox ratio; activity score, % at 18.7 µM; hit rate 0.13% among 350,000; AID 602363;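 active = replicate mean at a twofold rise or more, about +100% in these data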;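 note: firefly luciferase made from a UUG start codon reports start codon fidelity; reporter light over untreated wells divided by growth signal over untreated wells; some hits fall short of that in this replicate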
Rce1 inh – yeast Ras-converting enzyme inhibition; Q03530; yeast membranes, quenched prenylated peptide cleavage fluorescence; calls only; hit rate 0.27% among 290,000;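 active = fall in fluorescence gain of 50% or more versus controls, with final raw signal at or below 3038400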;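 note: plate controls were neutral control wells for no effect and wells lacking membranes for full effect; tested at 10 µM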
MT1-MMP act inh – MT1-MMP (human) activation inhibition; HT1080 RFP-PRO-GFP cells, GFP/RFP ratio fluorescence, overnight; percent of plate control window, DMSO zero; GFP/RFP ratio change, % at 20 µM; hit rate 0.061% among 360,000; AID 651647;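 active = GFP/RFP ratio change of at least 30% with cell ATP level not reduced by more than half and red fluorescence within 50% of control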; note: strong numbers were not always called active
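Test system: HT1080 cells expressing an RFP-PRO-GFP fluorescent reporter construct / Compound dosing: single-point 20 µM compound, 1% DMSO / Schedule: cells overnight before dosing, compound overnight, 37 °C, 5% CO2 / Evaluation: GFP/RFP fluorescence ratio / Control set: DMSO and RFP-L50D-GFP cell wells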
HIV Env fusion – blocks HIV Env-driven cell-cell fusion; HeLa-JRFL Env/CEM21 cell fusion, luciferase; inhibition, % at 12.3 µM; hit rate 1.1% among 360,000;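 active = mean replicate inhibition score of at least 50 and every replicate individually at or above 50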;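 note: 0% = plate neutral controls and 100% = maraviroc near 300 nM; one replicate is shown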
eIF4H FP inh retest – further read-out of eIF4H FP inh, marked with its call; inhibition, %; compound at 20 µM; confirmation average;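 mean of two retest wells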
PABP polyA inh retest – also measured in PABP polyA inh; calls as there; inhibition, %; compound at 20 µM; confirmation repeats;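 mean of two retest wells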
MT1-MMP act inh RFP – also measured in MT1-MMP act inh; calls as there; RFP signal change, %; measured here: RFP expression control read;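 0 = vehicle wells; hits needed this value within 50% of zero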
* = called active by the depositor; i = inactive; nt = no result given. These rows are one share of the data; count on the stated rates, not on these rows.

SMILES	PABP polyA inh	eIF4H FP inh	CSC inhib	UUG fidelity	Rce1 inh	MT1-MMP act inh	MT1-MMP act inh RFP	HIV Env fusion	others
O=C(O/N=C1\CCCc2ccccc21)c1ccc(F)cc1	-1	-1	-8	-34	i	3	3	-1
O=C(CSc1nc2[nH]ncc2c(=O)n1-c1ccccc1Br)NCc1ccco1	7	5	-5	-16	i	-1	-6	-61
O=C(O)c1ccc(Oc2ccc([N+](=O)[O-])cc2)c([N+](=O)[O-])c1	nt	nt	nt	-4	nt	2	1	12
COc1ccc(S(=O)(=O)Nc2cccc(N(C)S(C)(=O)=O)c2)cc1Br	-11	-4	-6	-9	i	1	-16	16
CCOCCn1c(CN2CCC(Cc3ccccc3)CC2)nc2c1c(=O)n(C)c(=O)n2C	1	-7	7	-9	i	2	1	nt
CCC(=O)N1CCN(c2ccc(NC(=O)COc3ccccc3Cl)cc2)CC1	-7	-3	-8	-4	i	-4	-18	nt
O=C(N1CCOCC1)N1CCN(c2ccccc2)CC1	-5	-1	1	nt	i	-6	-1	nt
Clc1cccc(-c2nc(NCCCN3CCOCC3)c3ccccc3n2)c1	10	0	91*	-8	i	-2	-2	3
Cc1cc2oc(=O)cc(CN3CCN(Cc4ccccc4)CC3)c2cc1Cl	0	-6	-10	-11	i	-8	-6	nt
C=CC1=C2C=C(C3CC3)N(CC3CC3)C=C2C(=O)C(C)(OC(=O)c2ccco2)C1=O (stereo not drawn)	nt	nt	-6	-2	i	2	6	-2
Cc1ccccc1CSCC(=O)Nc1c(C)n(C)n(-c2ccccc2)c1=O	-10	0	-2	nt	i	-2	1	-11
O=c1cc(-c2ccccc2)oc2ccccc12	nt	nt	-6	6	nt	0	1	nt
CCCc1nc2ccccc2n1CCOC	14	-5	-17	-6	i	1	0	-69
COc1cc(NC(=O)c2ccccc2F)c(OC)cc1NC(=O)CN1CCCCC1	2	-5	55	-6	i	4	0	1
N/C(=N\OC(=O)CCc1ccccc1)c1ccc(Cl)cc1	3	-1	9	-5	i	4	1	nt
CC(=O)Nc1ccc(S(=O)(=O)NCCC(=O)Nc2ccc(C)c(F)c2)cc1	6	9	-8	200*	i	-1	0	-11
COCCn1c(SCC(=O)NC(C)c2ccc(F)cc2)nc2ccccc21 (stereo not drawn)	3	-5	-10	-21	i	-1	1	2
CC(C)CNC(=O)c1ccc2c(c1)C(=O)N(Cc1ccco1)C2=O	1	-7	-16	-3	i	-1	2	8
Oc1ccc(Cl)cc1C1=NNC(c2cc(Br)cc3c2OCOC3)C1 (stereo not drawn)	-10	-9	0	nt	i	-6	-8	0
Cc1nn(Cc2ccccc2Cl)c2sc(C(=O)Nc3ccccc3N3CCOCC3)cc12	6	-9	54	nt	i	-1	-14	17

A portion taken from the entries so far, for reference:
SMILES	PABP polyA inh	eIF4H FP inh	CSC inhib	UUG fidelity	Rce1 inh	MT1-MMP act inh	MT1-MMP act inh RFP	HIV Env fusion	others
COCCn1c(SCC(=O)NC(C)c2ccc(F)cc2)nc2ccccc21 (stereo not drawn)	3	-5	-10	-21	i	-1	1	2
CC(C)CNC(=O)c1ccc2c(c1)C(=O)N(Cc1ccco1)C2=O	1	-7	-16	-3	i	-1	2	8
Oc1ccc(Cl)cc1C1=NNC(c2cc(Br)cc3c2OCOC3)C1 (stereo not drawn)	-10	-9	0	nt	i	-6	-8	0
Cc1nn(Cc2ccccc2Cl)c2sc(C(=O)Nc3ccccc3N3CCOCC3)cc12	6	-9	54	nt	i	-1	-14	17

The listing picks up, repeating the 7 entries before the break.
SMILES	PABP polyA inh	eIF4H FP inh	CSC inhib	UUG fidelity	Rce1 inh	MT1-MMP act inh	MT1-MMP act inh RFP	HIV Env fusion	others
COc1cc(NC(=O)c2ccccc2F)c(OC)cc1NC(=O)CN1CCCCC1	2	-5	55	-6	i	4	0	1
N/C(=N\OC(=O)CCc1ccccc1)c1ccc(Cl)cc1	3	-1	9	-5	i	4	1	nt
CC(=O)Nc1ccc(S(=O)(=O)NCCC(=O)Nc2ccc(C)c(F)c2)cc1	6	9	-8	200*	i	-1	0	-11
COCCn1c(SCC(=O)NC(C)c2ccc(F)cc2)nc2ccccc21 (stereo not drawn)	3	-5	-10	-21	i	-1	1	2
CC(C)CNC(=O)c1ccc2c(c1)C(=O)N(Cc1ccco1)C2=O	1	-7	-16	-3	i	-1	2	8
Oc1ccc(Cl)cc1C1=NNC(c2cc(Br)cc3c2OCOC3)C1 (stereo not drawn)	-10	-9	0	nt	i	-6	-8	0
Cc1nn(Cc2ccccc2Cl)c2sc(C(=O)Nc3ccccc3N3CCOCC3)cc12	6	-9	54	nt	i	-1	-14	17
Cc1cccc(NC(=S)NC2CC3CCC(C2)N3Cc2ccco2)c1C (stereo not drawn)	-8	-8	-38	-21	i	4	4	4
Cc1cc(C(=O)OCc2nc3ccccc3s2)c(C)o1	-2	0	2	10	i	2	4	nt
COc1ccc(C)cc1NC(=O)c1[nH]c(C)c(C(C)=O)c1C	-11	-1	-15	-14	i	-2	-5	-73
COCCNC(=O)Cn1c(=O)n(CCCC(=O)NCc2ccc3c(c2)OCO3)c(=O)c2sccc21	1	-4	-1	-4	i	1	3	14
COc1ccc(-c2nc3ccc(Br)cn3c2Cc2ccc(C)cc2)cc1OC	nt	nt	nt	-15	nt	2	-1	-5
NC(=O)C1C2CCC(C2)C1C(N)=O (stereo not drawn)	nt	nt	nt	-12	nt	1	2	0
COc1ccc(-n2c(C)nnc2SCC(=O)N2CCOCC2)cc1	3	1	-14	0	i	1	3	13
Cc1ccccc1SCCNC(=O)CCc1ccccc1	4	7	3	nt	i	nt	nt	nt
Cc1ccc(NC(=S)NCC2CCN(C(C)c3ccccc3)C2)cc1C (stereo not drawn)	13	0	5	nt	i	7	-2	-11
O=C(NNC1=C(C(=O)C(F)(F)F)CCC1)c1ccncc1	-1	3	-14	nt	i	1	2	-105
CCC(NC(=O)C1CCC1)c1ccc(C)cc1 (stereo not drawn)	5	-6	-12	-13	i	-7	-7	-109
CN1CCN(CCNC(=O)Nc2ccc([N+](=O)[O-])cc2)CC1	5	4	-9	nt	i	3	3	11
COc1ccc(-c2noc(CCC(=O)N(C)c3cccc(C)c3)n2)cc1	6	-4	4	-5	i	-4	-4	nt
COc1ccc(C(=O)N=c2sc3ccccc3n2C)cc1	-1	-5	2	-17	i	-8	-4	-196
CN(CC(=O)Nc1ccc(N2CCOCC2)cc1)Cc1c(O)ccc2ccccc12	102	2	-11	-7	i	3	5	14	eIF4H FP inh retest=0;PABP polyA inh retest=9

Source: PubChem BioAssay
